Screens as filed in PubChem BioAssay.
Vaccinia Venus: qHTS for Stage-Specific Inhibitors of Vaccinia Orthopoxvirus: Venus Reporter Primary qHTS; Vaccinia virus Venus reporter expression, fluorescence; Potency, µM (top dose mostly 36.5 µM), without a hit: at the highest dose activity change, negative = inhibition, hits mostly inhibitors; actives 0.46% (n = 330,000); AID 720580, 2013; active means well fitted inhibition curve with a large enough effect; inconclusive means small, poorly fitted or top-dose-only effect; inactive means no such curve, though single readings can be large or run the other way; tested in A549 cells; note: nearly all actives have a fitted effect of over 30% in size; inactives centre near -10
VACV mCherry inh: qHTS for Stage-Specific Inhibitors of Vaccinia Orthopoxvirus: mCherry Reporter Primary qHTS; AID 720579, 2013; Vaccinia virus mCherry reporter infection, fluorescence; about a quarter of the inactives have no number; Potency, µM (top dose mostly 36.5 µM), without a hit: at the highest dose activity change, negative = inhibition, most hits filed as inhibitors; actives 0.63% (n = 310,000); active = well fitted inhibition curve with a large enough effect; inconclusive = small, poorly fitted or top-dose-only effect; inactive = no such curve, though single readings can be large or run the other way; tested in A549 cells; note: nearly all actives have a fitted effect of over 35% in size; inactives centre near -10
* = called active by the depositor; i = inactive; ? = inconclusive; . = not tested or not shown; & = joins results of further samples. % is set by controls: 0 for no effect and ±100 for the full control effect; potency is the fitted concentration of half-maximal effect.

SMILES	Vaccinia Venus	VACV mCherry inh
Cc1ccc(C(=O)Nc2ccccc2C(=O)O)cc1S(=O)(=O)Nc1ccc(Br)cc1	-2.0%	-20.2%
Cc1c(C(=O)NN)sc(=S)n1C	-3.6%	-8.6%
O=C(O)[C@H]1CCCN1S(=O)(=O)c1cccc2cccnc12	-8.1%	i
O=[N+]([O-])c1cccc(/C=N/n2c(C3CCCCC3)n[nH]c2=S)c1	-4.5%	-24.2%
Cc1cc(C(=O)NCc2cccc(Cl)c2)c2ccccc2n1	2.7%	-5.1%
CCc1nnc(NC(=O)C(NC(=O)c2ccccc2Cl)C(C)C)s1 (configuration not stated)	-3.0%	i
CCCC[C@@H](C)C[C@@H](C)C(=O)N(C)[C@@H](CC(C)C)C(=O)N[C@H](C(=O)N(C)[C@H](C(=O)N1C[C@@H](O)C[C@H]1C(=O)N1C(=O)C=C[C@@H]1C)C(C)C)C(C)OC(C)=O (some centres not stated)	10µM*	?
CCc1cccc(C)c1NC(=O)C1C2CCC(O2)C1C(=O)O (configuration not stated)	-13.1%	i
Cc1onc(-c2ccccc2)c1-c1nnc(CN2CCN(S(=O)(=O)c3ccccc3)CC2)o1	-21.4%	-7.7%
COc1cc(OC)c(NS(=O)(=O)c2cccc(C(=O)OCC(=O)NCC3CCCO3)c2)cc1Cl (configuration not stated)	-14.1%	i
Nc1c(C(=O)NCc2ccc(Cl)cc2Cl)nnn1Cc1ccc(Br)cc1	-21.2%	-16.7%
O=C(c1ccccc1Br)N(Cc1ccccc1)c1ccccc1	-8.0%	-17.6%
Clc1ccc(CSc2ccc(-c3cccnc3)nn2)cc1	-16.5%	i
COc1ccc(/C=N/NC(=O)c2ccc(COc3ccccc3Cl)o2)cc1	-22.3%	-11.6%
CN(C)c1oc(-c2cccs2)nc1C#N	-12.7%	-14.3%
O=C(Nc1ccccc1)c1ccc(CSc2ncccn2)cc1	-24.6%	-3.1%
O=C(NCc1ccco1)c1ccc(NS(=O)(=O)c2cccc([N+](=O)[O-])c2)cc1	-6.4%	-6.9%
CCC(=O)N1CCC(C)(C(=O)Nc2ccc3c(c2)OCCO3)C1 (configuration not stated)	6.6%	24.5%
Cc1cc(C)n(-c2ccc(C(=O)O)cc2)n1	-2.6%	-10.2%
OC(c1cccc(Cl)c1)c1nc(-c2cc3ccccc3o2)cs1 (configuration not stated)	-0.4%	i
CC(C)(C)c1cc[n+](-c2[nH]c(=O)sc2/C=N/N=C(\[O-])c2cccnc2)cc1	-13.8%	-9.3%
Cc1ccc(Cn2c(C)c(CNCC(C)c3ccccc3)c(C(=O)O)c2C)cc1 (configuration not stated)	0.7%	-9.3%
Nc1nc(NCCCN2CCOCC2)nc(Nc2ccccc2F)c1[N+](=O)[O-]	4.5%	-14.2%
Cc1ccc(C(=S)N2CCN(Cc3ccccc3)CC2)cc1	-0.7%	?
CC(C)C(c1nnnn1Cc1ccc(F)cc1)N1CCN(C2CCCCC2)CC1 (configuration not stated)	2.8%	.
Cc1noc(C)c1C(=O)N1CCCC1	-10.3%	.
COc1ccccc1C(=O)Nc1nnc2n1CCS2	9.6%	1.7%
Cc1ccc(S(=O)(=O)c2nc(-c3ccc(F)cc3)oc2SCC(N)=O)cc1	-18.7%	-20.8%
CC(=O)NC1CC2CCCC(C1)N2C(=O)Nc1ccccc1 (configuration not stated)	-11.0%	-15.2%
O=C(COC(=O)CNS(=O)(=O)/C=C/c1ccccc1)NC1CCS(=O)(=O)C1 (configuration not stated)	?	i
O=C(CSc1nc(-c2ccco2)cc(C(F)(F)F)n1)N1CCc2ccccc2C1	-12.2%	.
COc1ccc(NC(=O)NC2(C(=O)N3CCN(C)CC3)CCCCC2)cc1	-5.2%	7.8%
COc1ccc(-c2cc(=O)c3c(O)cc(O[C@@H]4OC(COC5OC(C)C(O)C(O)[C@@H]5O)C(O)C(O)C4O)cc3o2)cc1 (some centres not stated)	-12.4%	i
Cc1ccc(OCC(=O)N2CCc3ccccc32)c([N+](=O)[O-])n1	-6.1%	-4.5%
Cc1ccc(NC(=O)c2ccc3c(c2)NC(=O)c2ccccc2S3)cc1	?	?
O=C(NC(=S)NC(CO)Cc1ccccc1)c1ccc(F)cc1 (configuration not stated)	-6.7%	i
C[C@H](CO)N1C[C@H](C)[C@@H](CN(C)S(=O)(=O)c2ccc(F)cc2)Oc2ccc(NC(=O)CCN3CCOCC3)cc2C1=O	-6.3%	i
CN1CCN(c2csc3ccc(F)cc3c2=O)CC1	-20.6%	i
CCOc1ccc(NC(=O)NC2CC(=O)N(c3ccc(OC)cc3)C2)cc1 (configuration not stated)	-1.3%	-5.8%
CCOC(=O)c1c(-c2ccc(C)cc2)csc1NC(=O)CCN1CCOCC1	-14.8%	i
NC(=O)C(Cc1ccccc1)NC(=O)C12CC3CC(CC(C3)C1)C2 (configuration not stated)	-10.0%	-20.9%
Cc1ccc(C)c(OCCC(=O)OCC(=O)NCc2ccc(F)cc2)c1	-18.0%	i
N#CCCN(Cc1ccccc1)C(C(=O)NC1CCCCC1)c1ccnc2ccccc12 (configuration not stated)	7.0%	9.0%
O=C(CN(Cc1ccccc1)C1=NCCS1)c1ccccc1	-9.6%	i
CCS(=O)(=O)c1ncc(Cl)c(C(=O)Nc2ccccc2OC)n1	-4.4%	i
NC(=O)[C@@H]1CCCN1C(=O)c1cc(COc2ccc3c(c2)CCCC3)on1	-22.0%	-3.1%
O=c1c(N2CCN(c3ccc(F)cc3)CC2)csc2ccc(F)cc12	?	?
C/C(CCc1ccc2c(c1)OCO2)=N\NC(=O)c1ccccc1Br	-3.9%	-6.2%
CN1[C@@H](Cc2ccccc2)COc2cc(N3CCSCC3)ccc2S1(=O)=O	4.7%	19.7%
Nc1ccc(C(=O)C(=O)c2ccc(N)cc2)cc1	-17.8%	i
Cc1ccc(S(=O)(=O)C(C#N)=C2N(C)c3ccccc3N2C)cc1	4.2%	i
COc1ccc(OC)c(C(C[N+](=O)[O-])c2c(C)cc3ccccn23)c1 (configuration not stated)	-4.9%	-20.5%
COc1ccc(C)cc1S(=O)(=O)N1CCC2(CC1)OCCN2S(=O)(=O)c1ccccc1	-3.3%	i
O=C(COc1ccccc1Cl)Nc1ccccc1C(=O)NC1CC1	-4.5%	i
CCn1c(SCC(=O)N2CCCCC2C)nnc1-c1ccco1 (configuration not stated)	-7.4%	-2.2%
Cc1ccc(NC2Sc3ccccc3NC2=O)cc1 (configuration not stated)	-13.5%	-20.6%
NS(=O)(=O)c1ccc(CCNC(=O)CN2CCN(S(=O)(=O)c3ccccc3F)CC2)cc1	-5.2%	i
O=C(NCCc1csc(-c2ccc(C(F)(F)F)cc2)n1)c1ccccc1Cl	-16.3%	-9.1%
CCOc1nc(C#N)nc(N(c2ccccc2)c2ccccc2)n1	-7.1%	-15.9%
COc1ccc(/C=N/NC(=O)CC(=O)NCc2cccnc2)cc1[N+](=O)[O-]	-9.7%	i

Later entries:
SMILES	Vaccinia Venus	VACV mCherry inh
COc1ccc(/C(O)=C2\C(=O)C(=O)N(c3cc(C)on3)C2c2ccc(OC)c(OC)c2)cc1OC (configuration not stated)	-8.7%	-17.7%
O=C(Nc1nccs1)c1cc(-c2ccco2)nc2ccccc12	8.9%	-0.9%
COc1ccc(N2CCN(C(=O)C(=O)c3cn(CC(=O)N4CCCC4)c4ccccc34)CC2)cc1	-20.2%	?
O=S(=O)(NCCc1ccccc1)c1cccc(S(=O)(=O)N2CCOCC2)c1	-7.7%	-18.1%
COc1cccc(-c2cc(C(=O)NCCCN3CCOCC3)no2)c1	2.9%	i
O=S(=O)(/C=C/c1ccccc1)N1CCN(c2nc(-c3ccccc3)nc3ccccc23)CC1	8.6%	i
Cc1ccc(S(=O)(=O)N2[C@@H](Cc3ccccc3)CO[C@H]2CC(=O)OCc2ccccc2)cc1	-15.6%	?
O=c1cc(Cl)c2ccccc2n1-c1ccccc1	-21.4%	-15.0%
CCOc1ccc(CCNC(=O)C2Cc3ccccc3N2C(=O)CC)cc1 (configuration not stated)	-2.9%	-2.0%
CC1CCN(C(=O)CSc2nc(=O)n3cc(Cl)ccc3n2)CC1	-0.1%	i
COc1ccc(/C=C/c2ccc3ccccc3[n+]2C)c(OC)c1OC	?	-27.0%
OC(Br)C(O)C(O)N1CCCc2ccccc21 (configuration not stated)	-25.9%	-28.0%

Copied from the listing, 2 compounds:
SMILES	Vaccinia Venus	VACV mCherry inh
Cc1ccc(C(=O)Nc2ccccc2C(=O)O)cc1S(=O)(=O)Nc1ccc(Br)cc1	-2.0%	-20.2%
Cc1c(C(=O)NN)sc(=S)n1C	-3.6%	-8.6%

Compound profiles, from the list above. Screens in order: Vaccinia Venus	VACV mCherry inh
Record of OC(Br)C(O)C(O)N1CCCc2ccccc21 (configuration not stated) = -25.9%	-28.0%
Record of CC1CCN(C(=O)CSc2nc(=O)n3cc(Cl)ccc3n2)CC1 = -0.1%	i
Record of O=S(=O)(NCCc1ccccc1)c1cccc(S(=O)(=O)N2CCOCC2)c1 = -7.7%	-18.1%
Record of COc1ccc(/C(O)=C2\C(=O)C(=O)N(c3cc(C)on3)C2c2ccc(OC)c(OC)c2)cc1OC (configuration not stated) = -8.7%	-17.7%
Record of Cc1ccc(S(=O)(=O)N2[C@@H](Cc3ccccc3)CO[C@H]2CC(=O)OCc2ccccc2)cc1 = -15.6%	?

Other entries follow:
SMILES	Vaccinia Venus	VACV mCherry inh
Cc1cccc(C(=O)OC(C)C(=O)NC(=O)NC2CCCCC2)c1O (configuration not stated)	-13.9%	-22.9%
Cn1c(Cc2c[nH]c3ccccc23)n[nH]c1=S	11.9%	.
COc1ccc(C(C)(C)C)cc1NC(=O)COC(=O)c1cc(SC)ccc1Cl	-9.4%	i
COc1ccc(OC)c(NC(=O)c2cc3c(cc2Cl)N2CCCCCC2=NS3(=O)=O)c1	-10.5%	i
O=C(NC(=S)NC1CCS(=O)(=O)C1)c1ccccc1Br (configuration not stated)	-14.8%	i
Cn1/c(=N/N=C/c2ccc(N3CCOCC3)cc2)sc2ccccc21	9.9%	-3.8%
CCC(=O)N1CCc2cc(Br)cc(S(=O)(=O)CCC(=O)N3CCN(c4cccc(C(F)(F)F)c4)CC3)c21	-17.0%	i
CC(=O)Nc1ccc(CN2CCCC(C(=O)c3ccc(C(F)(F)F)cc3)C2)cc1 (configuration not stated)	-17.4%	-11.8%
Cc1ccc(S(=O)(=O)C(CNC(=O)C(=O)NCCc2ccccc2)c2ccco2)cc1 (configuration not stated)	-18.1%	-9.3%
COc1ccc(CCNC(=O)c2ccc3c(c2)CCN3S(C)(=O)=O)cc1OC	-2.9%	-12.8%
Cc1c(N/C(=N/S(=O)(=O)c2cc([N+](=O)[O-])ccc2Cl)c2ccccc2)c(=O)n(-c2ccccc2)n1C	1.2%	3.2%
COc1ccc(/C=N/NC(=O)c2cccnc2)cc1CN1CCOCC1	-8.4%	-16.9%
Cc1ccc(-c2nc(NC(=O)CSc3ncnc4sc5c(c34)CCC(C)C5)ns2)cc1 (configuration not stated)	-8.8%	-15.8%
O=C(C1=C[C@H](c2csc3ccccc23)C[C@H](OCc2ccc(CO)cc2)O1)N1CCN(Cc2ccccc2)CC1	?	?
Cc1ccc2c(c1)-c1cc(C)nn1C(c1cc(Br)ccc1O)N2 (configuration not stated)	-13.1%	-29.9%
CC[C@]1(C(=O)OC)[C@H]2C(=O)N(C)C(=O)[C@H]2[C@H]2CN(C)C(=NC3CCCCC3)N21	-0.2%	-13.1%
C[C@H](CO)N1C[C@H](C)[C@@H](CN(C)Cc2ccccc2)Oc2c(NC(=O)C3CCCCC3)cccc2C1=O	-29.1%	?
O=C(c1ccncc1)c1ccc(NS(=O)(=O)c2ccc(Br)s2)cc1	-20.5%	-9.6%
O=C(NCc1ccccc1Br)c1ccc2nc(N3CCCCC3)sc2c1	-14.5%	-6.1%
CC(C)C[C@@H](CO)NS(=O)(=O)c1c(F)cccc1F	-5.6%	-10.9%
O=C(c1ccc2c(c1)N(Cc1ccccc1F)C(=O)c1ccccc1S2=O)N1CCC(Cc2ccccc2)CC1 (configuration not stated)	-25.5%	-27.0%
CC1(C)CCC[C@]2(C)[C@H]3CC(=O)O[C@]3(C)CC[C@@H]12	-1.3%	-10.3%
COc1ccc(/C=C/C(=O)NCCNC(=O)c2ccccc2)cc1OC	0.3%	-2.2%
O=C(Nc1cccc(Cl)c1)C1=Cc2cc(Cl)ccc2OC1	-29.5%	.
CCOc1cc(C2C3=C(CCCC3=O)NC3=C2C(=O)CCC3)ccc1OCCO	-18.0%	.
Cc1cc(=O)[nH]c(SCc2nc3ccccc3s2)n1	4.9%	.
COCCCn1c(=O)c2sccc2n2c(CCCC(=O)NCc3cccc(OC)c3)nnc12	-1.8%&3.2%	-14.3%&-1.8%
O=C(NCCc1ccccc1)C1CCN(C2CCN(Cc3ccc(CO)o3)CC2)CC1	-8.3%	-16.5%
COc1ccc(CCNC(=O)CSc2nc(C)nc3c2c(=O)n(C)c(=O)n3C)cc1OC	-12.0%	i
O=C(Nc1cccc2c1CCCC2)c1cc(C2CCCCN2C(=O)OCCF)on1 (configuration not stated)	-17.9%	i
CCOC(=O)c1c(C)[nH]c(C)c1C(=O)CSc1nc2ccccc2n1CC	-4.5%	-11.3%
C[C@H](CO)N1C[C@H](C)[C@H](CN(C)S(=O)(=O)c2cccs2)Oc2ncc(-c3cc4ccccc4o3)cc2C1=O	-26.6%	-7.4%
CCC(Sc1nc2ccccc2[nH]1)C(=O)Nc1cc(C)on1 (configuration not stated)	-9.7%	.
O=C(O)c1ccc2cc[nH]c2c1	-7.9%	.
COc1cc(OC)c(NC(=O)C2=C(C)C(=O)OC23CCCCC3)cc1Cl	0.7%	0.9%
